Screening results from PubChem.
KSHV LANA nucl: LANA-nucleosome interaction inhibition. FITC-LANA1-23 / chicken nucleosome fluorescence polarization; stronger effect = lower value. z-score (test concentration not listed). 0.3% of 51,000 active. AID 720717;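 active = both repeat wells score below -2 in polarization z-score versus plate sample wells, excluding overly bright wells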;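 also: 100 nL library stock added to about 30 µL; numbers are from one replicate; some results filed as inactive read as strong as hits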
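Assay system: FITC-LANA peptide and chicken nucleosomes; input: 240 nM purified chicken nucleosomes (480 nM peptide binding sites), final; also added: 50 nM FITC-LANA1-23 probe; medium: TEN-BT buffer, pH 7.5; doses: pin-transferred compound, 100 nL; times: 10–45 min, room temperature; technique: fluorescence polarization; replication: duplicates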
Ab BasE inh: BasE siderophore biosynthesis inhibition; purified BasE, fluorescence polarization binding displacement; 0.1% of 84,000 active; AID 485350; inhibition, % (test concentration not listed);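 active = both replicates above 25% with normal brightness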;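 also: 0% = negative plate control signal and 100% = positive plate control signal; stock transfer was 100 nL into about 30 µL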
* = called active by the depositor; · = no result given; & = joins results of further samples. A portion of the library, so the mix of outcomes need not match the whole.

SMILES	KSHV LANA nucl	Ab BasE inh
CC1(C)CC(=O)/C(=C/c2ccccc2)C(C)(C)N1	·	1.6
Cc1cc(NC(=O)C(C)(C)C)no1	·	0.6
COc1ccc(NCC(=O)N/N=C/c2c(C)nn(-c3ccccc3)c2N2CCCC2)cc1	·	0.3
Cc1nc(-c2ccc3c(c2)CCN3c2ncnc3sccc23)cs1	·	0.2
Cc1[nH]cnc1CN1CCN(C/C=C/c2ccccc2)CC1	0.0135	0.3
Cc1cccc2nc(-c3cccc(NC(=O)C(C)C)c3)cn12	·	-4.2
Cc1nc(N)sc1Cc1ccc2c(c1)OCO2	·	1.1
Cc1ccc(S(=O)(=O)c2nc(C(C)(C)C)oc2NCc2ccccc2)cc1	-0.309	1.9
Cc1nc2ccc(Cl)cc2cc1C(=O)O	-0.199	1.9
CC1=CC(=O)C=CC1=N/C(=N\S(=O)(=O)c1ccc(C)cc1)c1ccccc1	·	3.1
CC1=CC(C)C2(COC(CN3CCCCC3)OC2)C(C)C1 (stereo not given)	-0.0595	2.1
COc1ccc2[nH]cc(NC(=O)NCc3ccncc3)c(=O)c2c1	-0.76	2.0
CC/C=C\C/C=C\C/C=C\C/C=C\C/C=C\CCCC(=O)O	-0.0155	3.4
CC(C)[C@H](NS(=O)(=O)c1ccc2c(c1)OCCO2)C(=O)NC1CCCCCC1	·	2.6
S=C(NCc1ccccc1)NN=C1CCCC1	·	0.3
CCOC(=O)c1cc(=O)c2cc(Cl)ccc2o1	·	0.5
O=C(c1ccc2nc[nH]c2c1)N1CCc2ccccc2C1	·	-1.9
COC(=O)c1cc2cccc(OC)c2oc1=O	-0.075	2.0
Cc1onc(-c2ccccc2)c1-c1nc(CSc2nc3ccccc3[nH]2)no1	·	2.0
O=C(NCCO)c1ccc(N2C(=O)CCC2=O)cc1	-0.033	0.8
Cc1csc(=O)n1CC(=O)OCc1nnc(-c2ccc(Cl)cc2)o1	·	0.3
O=C(CN1CC(C(=O)N2CCOCC2)Oc2ccccc21)NCCc1c[nH]c2ccccc12 (stereo not given)	·	1.6
O=C(O)CCCn1cc(NC(=O)CCc2ccccc2)cn1	-0.159	0.3
CCCn1c(SCc2nc(N)nc(Nc3ccc(C)cc3)n2)n[nH]c1=O	·	-1.2
CC(C#N)N1CCN(C(c2ccccc2)c2ccccc2)CC1 (stereo not given)	·	-0.6

By substructure, the compounds so far containing four or more nitrogen atoms
SMILES	KSHV LANA nucl	Ab BasE inh
COc1ccc(NCC(=O)N/N=C/c2c(C)nn(-c3ccccc3)c2N2CCCC2)cc1	·	0.3
Cc1nc(-c2ccc3c(c2)CCN3c2ncnc3sccc23)cs1	·	0.2
Cc1[nH]cnc1CN1CCN(C/C=C/c2ccccc2)CC1	0.0135	0.3
COc1ccc2[nH]cc(NC(=O)NCc3ccncc3)c(=O)c2c1	-0.76	2.0
Cc1onc(-c2ccccc2)c1-c1nc(CSc2nc3ccccc3[nH]2)no1	·	2.0
O=C(CN1CC(C(=O)N2CCOCC2)Oc2ccccc21)NCCc1c[nH]c2ccccc12 (stereo not given)	·	1.6
CCCn1c(SCc2nc(N)nc(Nc3ccc(C)cc3)n2)n[nH]c1=O	·	-1.2

Continued.
SMILES	KSHV LANA nucl	Ab BasE inh
Fc1ccc(-c2nc3ccc4ccccc4c3c3c2CCC3)cc1	·	2.0
COCc1cc(C)nc2sc(C(=O)Nc3ccc4c(c3)OCO4)c(N)c12	-0.59	0.3
CCc1ccc(NC(=O)Cn2cnc3c(nc4n3CCCCC4)c2=O)cc1	2.9	-1.6
O=C(CN1CCN(S(=O)(=O)/C=C/c2ccccc2)CC1)NCC(F)(F)F	·	-2.1
Cc1cc(=O)[nH]c(SCC(=O)N2CCN(S(=O)(=O)c3ccccc3)C2)n1	0.524	-0.4
COCc1c(Br)c(C)nc2oc(C(=O)c3ccccc3)c(N)c12	-0.858	1.3
O=C(CCC1COc2ccccc2O1)N1CCCC1 (stereo not given)	3.15	-2.1
CN1CCN(c2ccc(Cl)cc2NC(=O)c2cccc(S(=O)(=O)N3CCc4ccccc43)c2)CC1	·	-1.6
CCN1C(=O)C(C(O)c2cc(OC)ccc2OC)SC1=Nc1ccc(C(=O)OC)cc1 (stereo not given)	·	2.2
CCN1CCN(c2ccc(NC(=O)CCc3c(C)nc4cc(-c5ccc(OC)cc5OC)nn4c3C)cc2)CC1	-0.817	1.1
O=c1[nH]c2cccc(Cl)c2n(CCNc2ncc(C(F)(F)F)cc2Cl)c1=O	0.588	·
COC(=O)Cn1cnc2ccccc2c1=O	·	20.0
O=C(COc1nc2ccccc2nc1N1CCOCC1)N1CCc2ccccc21	·	-2.6
COc1cc(OC)c(C(=O)OCC(=O)c2ccc3c(c2)NC(=O)CO3)cc1OC	·	0.1
C[C@]12C[C@H](O)[C@@H]3c4ccc(O)cc4CCC3[C@@H]1CCC2=O (stereo not given in full)	0.541	-0.1
COC(=O)c1c(NC(=O)/C=C/c2cccs2)sc2c1CCCC2	·	-1.5
Cc1cc(=O)[nH]c(N/N=C/C=C/c2ccccc2)n1	-0.921	0.0
CC[N+](C)(C)Cc1ccccc1Br	0.909	-0.4
CN(C)CCN(Cc1ccccc1)c1ccccn1	0.03&1.06	·
Cn1c(=O)c(C#N)c(O)c2ccccc21	-0.299	3.3
COc1nc(N=C(N)N)nc2ccc(C)cc12	-0.345	-0.1
CCCCn1c2ccccc2c2nnc(SCCN3CCOCC3)nc21	-0.897	1.8
CC1=C(C(=O)Nc2cccc(Cl)c2C)C(c2ccc(F)cc2)NC(=S)N1 (stereo not given)	·	0.1
COc1cccc(C2(O)CCN(C(=O)Cc3ccc(OC)c(OC)c3)CC2)c1	0.154	-0.3
CCCc1cc2c(c(N)n1)c(=O)oc1ccccc12	0.112	-21.1

Four records picked at random from those above:
SMILES	KSHV LANA nucl	Ab BasE inh
COCc1c(Br)c(C)nc2oc(C(=O)c3ccccc3)c(N)c12	-0.858	1.3
Fc1ccc(-c2nc3ccc4ccccc4c3c3c2CCC3)cc1	·	2.0
Cc1cc(=O)[nH]c(SCC(=O)N2CCN(S(=O)(=O)c3ccccc3)C2)n1	0.524	-0.4
CCCCn1c2ccccc2c2nnc(SCCN3CCOCC3)nc21	-0.897	1.8

Later entries.
SMILES	KSHV LANA nucl	Ab BasE inh
CCOC(=O)c1cc(NC(=O)N(C(C)C)C(C)C)c(C)nc1C	2.39	-3.1
O=C(CC12CC3CC(CC(C3)C1)C2)Nc1noc2ccccc12	0.321	1.7
Cc1oc(-c2ccc(C(=O)NC3CCCC3)cc2)nc1CS(=O)c1ccccc1 (stereo not given)	-0.858	0.4
CN1CCCN(C(=O)c2cc(=O)c3ccccc3o2)CC1	·	4.0
N#CC1=C(N)OC2=C(C(=O)CCC2)C1c1c(F)cccc1Cl (stereo not given)	-0.0225	0.5
COC(=O)c1cccc(OCC(O)CNCCC2=CCCCC2)c1 (stereo not given)	·	-1.2
CN(C(=O)Nc1ccccc1)C1CCS(=O)(=O)C1 (stereo not given)	0.243	0.8
CN(C(=O)c1cc2nc(-c3ccco3)cc(C(F)(F)F)n2n1)C12CC3CC(CC(C3)C1)C2	2.64	-0.2
Cc1cc(C(=O)NCc2cccs2)cs1	-0.232	-1.9
CCN(CC)CCN1C(=O)c2ccccc2NC1c1ccc2c(c1)OCO2 (stereo not given)	-0.588	1.6
CCS(=O)(=O)N1CCc2cc(C(=O)CSc3nnc(C4CCCCC4)o3)ccc21	·	0.0
CC(=O)NCCc1ccc(S(=O)(=O)Nc2ccc3ncn(C)c(=O)c3c2)cc1	-0.885	3.6
O=C(Oc1ccc(S(=O)(=O)c2ccc(OC(=O)c3cccs3)cc2)cc1)c1cccs1	·	1.1
C=CCn1c(CNc2ccc(C)cc2)nnc1SCC(=O)c1ccccc1	·	-1.3
O=C1CN(C(=O)COc2ccc(Cl)cc2)C2(CCCCC2)C(=O)N1	·	2.8
O=c1ccc2ccccc2n1Nc1ccc(Br)cc1	0.175	-2.6
CCCCc1ccc(NC(=O)CC)c(C)c1	1.52	-1.5
CCN(CC(=O)Nc1ccc(S(N)(=O)=O)cc1)CC(=O)Nc1cc(Cl)ccc1C	·	0.3
C=C(C)c1cccc(C(C)(C)NC(=O)NNc2nc(C)cc(C)n2)c1	·	2.2
NC(=O)c1ccc[n+](CCO)c1	0.863	2.4
Cc1ccc(C)c(N2CCN(C(=O)c3ccc4nc(N5CCOCC5)sc4c3)CC2)c1	0.941	0.3
Cc1nc2cc3c(cc2s1)OCO3	·	-1.3
COc1cc2c(cc1OC)CN(C(=O)c1cccc(S(=O)(=O)N3CCCCC3)c1)CC2	·	0.7
CCN(c1ccccc1)S(=O)(=O)c1ccc(C(=O)OCC#N)cc1	·	0.2
CCc1nn2c(=O)cc(CSc3nnc(N)s3)nc2s1	1	-0.2

Some of these compounds in order of formula weight, descending:
SMILES	KSHV LANA nucl	Ab BasE inh
O=C(Oc1ccc(S(=O)(=O)c2ccc(OC(=O)c3cccs3)cc2)cc1)c1cccs1	·	1.1
CCOC(=O)c1cc(NC(=O)N(C(C)C)C(C)C)c(C)nc1C	2.39	-3.1
CN1CCCN(C(=O)c2cc(=O)c3ccccc3o2)CC1	·	4.0
Cc1cc(C(=O)NCc2cccs2)cs1	-0.232	-1.9

Additional entries
SMILES	KSHV LANA nucl	Ab BasE inh
COC(=O)C(C)NC(=O)N1CCC2(CC1)NC(=O)c1ccccc1O2 (stereo not given)	0.163	0.7
CN(C)S(=O)(=O)NCC1CCCO1 (stereo not given)	0.212	-0.5
O=C(COc1ncnc2c1cnn2-c1ccccc1)N1CCN(S(=O)(=O)c2ccc(Cl)cc2)CC1	·	-2.1
CC1(C)CC(=O)c2c(nn(-c3ccccc3)c2N)C1	·	2.6
CCn1c(=NC(=O)C2CC2)sc2c(OC)ccc(OC)c21	-1.1	-1.2
CCOC(=O)CN1CSC2=C(C#N)C(c3ccc(OC)cc3)CC(=O)N2C1 (stereo not given)	2.78	-2.9
COC(=O)C(C)N(C#N)c1nc(N(C)C)nc(N(C)C)n1 (stereo not given)	-1.13	3.0
COc1ccc(/C=C/c2onc3ccccc23)cc1	1.06	·
COC(=O)COc1ccc2c(=O)c(-c3ccc(Cl)cc3)coc2c1	·	0.6
CC1=C(C(=O)OCC(F)(F)F)C(c2ccccc2)NC(=O)N1 (stereo not given)	0.161	-1.5
CCc1ccc(O)c(C2(O)C(=O)c3ccccc3C2=O)c1	·	5.9
Cc1ccc2c(c1)CCCN2C(=O)Nc1cccc(C)c1C	-1.44	1.7
CC1=CC(C)C2C(=O)N(c3ccccc3)C(=O)C2C1 (stereo not given)	0.419	1.3
O=C(CSc1ccc2nnc(CCNS(=O)(=O)c3ccccc3)n2n1)Nc1ccc2c(c1)OCO2	1.01	0.9
Cc1ccsc1CNc1ccc2[nH]c(=O)[nH]c2c1	-0.323	1.6
O=C(/C=C/c1ccccc1)Nc1nnc(C(F)(F)F)s1	-0.012	-1.2
Cc1cc(-c2ccc(N3C(=O)CCC3=O)c(C)c2)ccc1N1C(=O)CCC1=O	-0.263	3.2
COc1ccc2c(CC(=O)OCC(=O)C(C)(C)C)coc2c1	·	0.3
O=C(Cn1ncc2c(=O)oc3ccccc3c21)Nc1ccccc1F	-0.229	3.0
O=C(NCCc1ccccc1)c1ccc(N2CCCCS2(=O)=O)cc1	-0.846	2.3
CC1(C)O[C@@H]2CC3C4C[C@H](F)C5=CC(=O)C=CC5(C)C4C(O)CC3(C)[C@]2(C(=O)CO)O1 (stereo not given in full)	0.449&-0.065	-2.0
COC(=O)Cc1cc(=O)n2c(nc3ccccc32)[nH]1	0.375	3.8
Cc1ccc(S(=O)(=O)N=C2C=CC(=NS(=O)(=O)N(C)C)C=C2)cc1	0.308	1.2
O=c1oc2cc(OCc3ccc(Cl)cc3)ccc2c2c1CCC2	·	2.2
CCCn1c(SCC(=O)N(CC)C2=CCCCC2)n[nH]c1=O	·	-0.3
Remaining list, next part.
SMILES	KSHV LANA nucl	Ab BasE inh
CCN(CC)S(=O)(=O)c1ccc(C(=O)NC2CCCCC2)cc1	·	-3.5
COCc1nnc(NC(=O)c2ccc3c(c2)OCO3)s1	-0.267	2.3
c1ccc2c(c1)NCC1CCCN21 (stereo not given)	0.815	-3.9
CCCCc1ccc(/C(C)=C/C(=O)O)cc1	-0.243	0.8
CCn1c(SCC(=O)Nc2cc(C)on2)nc2sc(C)c(C)c2c1=O	·	-0.3
O=C(Cc1ccccc1)Nc1ccncc1	-0.809	4.3
CN(CCCN)Cc1ccccc1	·	2.8
N#C/C(=N\O)C(=O)c1ccco1	·	2.1
CCn1cc(C(=O)OC)c(=O)c2ccc(C)nc21	2.82	0.3
CCS(=O)(=O)c1cccc(C(=O)Nc2nnc(-c3ccc4c(c3)OCCO4)o2)c1	0.595	1.5
O=C(CSc1nnc(Cc2ccccc2)o1)C12CC3CC(CC(C3)C1)C2	·	0.7
Oc1ccc(/C=N/N2CCN(Cc3cccc4ccccc34)CC2)cc1O	·	0.4
CC1(CSc2ccccc2C(=O)Nc2nc3ccccc3[nH]2)NC(=O)NC1=O (stereo not given)	·	-2.2
N#CCSc1nnc2n(-c3ccccc3)c(=O)c3ccccc3n12	·	0.3
COc1ccc(NC(=O)Cc2nc(-c3ccc(OC)cc3)no2)cc1	-0.525	2.5
CN(Cc1nc(-c2ccccc2)no1)C(=O)CSc1ccccc1	0.377	2.7
CC(=O)Nc1cccc(N=Cc2cc(I)cc(C)c2O)c1	·	1.0
COCC(C)N=CC1=C(O)CC(C)(C)CC1=O (stereo not given)	0.399	1.5
Cc1c(NC(=S)N2c3ccccc3CC2C)c(=O)n(-c2ccccc2)n1C (stereo not given)	·	-4.4
N#Cc1ccc(OCC(O)CN2CCC(O)CC2)cc1 (stereo not given)	·	1.5
Cc1ccc(S(=O)(=O)Nc2ccc(OCc3cc(=O)n4ccsc4n3)cc2)cc1	0.46	-1.7
CC(C)OC(=O)Cn1c(C(=O)OC(C)C)cc2c1ccn2-c1ccc(F)cc1	0.457	0.7
O=C(NC1=NCCS1)C1CC=CCC1 (stereo not given)	·	-0.8
